NPYLR7 ag – mosquito NPYLR7 agonism; HEK293T NPYLR7/Galpha15, GCaMP6s calcium fluorescence; 270,000 compounds, 0.15% hits; activation, % at 10 µM; in the data active = activation above about 40%;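 also: 0% = vehicle and 100% = reference agonist at the receptor; some compounds past the cut are filed as inactive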
NPYLR7 ag max-min – further read-out of NPYLR7 ag, marked with its call; activation, %; measured here: Max-Min RFU normalised activation; some inactives read as strong as hits;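 span of the calcium signal over five minutes; 0% = vehicle and 100% = native peptide agonist; compound fluorescence can raise it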
* = called active by the depositor; & = joins results of further samples. Not all compounds are listed; count on the stated rates, not on these rows.

SMILES | NPYLR7 ag | NPYLR7 ag max-min
Cc1c(C)n2c3c(=O)n(CC(C)C)c(=O)n(C)c3nc2n1CCc1ccccc1 | 2 | -1
COc1ccccc1NC(=O)CCSCc1cc(Cl)c2c(c1)OCCO2 | 7 | 3
CCCn1c(=O)c2c(nc3n(-c4cc(C)cc(C)c4)c(C)cn23)n(C)c1=O | 2 | 0
Cc1ccc(F)c(CNC(=O)C2(C)CCCN2C(=O)C(C)C)c1F (stereo not given) | 3 | -2
O=C(NC1CCC2(CC1)OCCO2)c1csc(-c2ccc(Cl)c(Cl)c2)n1 | -1 | 13
Cc1c(C(=O)NC2CC2)sc(=O)n1Cc1ccc(S(C)(=O)=O)cc1 | -8 | -5
CC(=O)N1CCCC(C(=O)N2CCCN(c3nc(C)cs3)CC2)C1 (stereo not given) | 8 | 4
O=C(Nc1ccnn1C1CCN(c2ncccc2Cl)CC1)c1cccnc1 | -5 | -7
CCCCc1ncc([C@@H]2C[C@H](NC(C)=O)C[C@H](CC(C)C)O2)[nH]1 | 6 | 3
CCCCc1ncc(CN2CCCC(CNC(=O)C3(c4ccc(Cl)cc4)CC3)C2)[nH]1 (stereo not given) | 11&8 | 2&-3
Cc1nc(CN2CCN(C(=O)c3cn(-c4ccccc4)nn3)CC2)cs1 | -11 | -16
COc1ccc(CN2CCN(C)CC2)cc1NC(=O)C(C)OC (stereo not given) | 6 | 3

New compounds follow.
SMILES | NPYLR7 ag | NPYLR7 ag max-min
CCc1c(C(=O)OC)sc2nc(CN(Cc3ccccc3)CC(O)COC(C)(C)C)[nH]c(=O)c12 (stereo not given) | 6 | 6
CCc1ccc(-c2noc(CCC(=O)N(CC)CC(=O)NC(C)(C)C)n2)cc1 | -4 | -4
O=c1c2cc(Br)ccc2ncn1Cc1cc2c(cc1Br)OCO2 | -3 | -4
Cc1ccc(OCc2nc(CNC(C)C)cs2)cc1 | 34 | 38
Cc1ccccc1-c1noc(CCC(=O)N(C)Cc2n[nH]c3c2CCCC3)n1 | 2 | -1
CN(Cc1ccc(Cl)cc1)c1cnccn1 | -3 | -3
Cc1ccc2cc(C3(O)CCN(C)CC3)ccc2n1 | 21 | 10
CC1=NS(=O)(=O)NC(C)=C1CCC(=O)N1CCc2sccc2C1c1ccccc1 (stereo not given) | 0 | -1
Cc1nccn1CC1CCCN(Cc2ccc(-c3ccn[nH]3)s2)C1 (stereo not given) | 25 | 6
O=C(CSc1nnc(-c2ccc(Cl)cc2)n1-c1ccccc1)N/N=C\c1ccccc1F | 10 | 8
O=C1Nc2ccccc2C12CCCN(c1cnc3ccccc3n1)C2 (stereo not given) | 7 | 7
C=C(C)CN(C)C(=O)[C@@H]1C[C@H](N)CN1C | 16 | 11

Next results follow.
SMILES | NPYLR7 ag | NPYLR7 ag max-min
COc1ccc(C2CC(=O)C3C(=Nc4ccccc4NC3c3ccc(C)s3)C2)cc1 (stereo not given) | 3 | 1
COc1ccc(-n2nnnc2CNC(=O)C2c3ccccc3Oc3ccccc32)cc1 | 9 | 9
Cn1c(=O)c2c(nc3n2CC(c2ccc(F)cc2)=NN3Cc2c(F)cccc2Cl)n(C)c1=O | 8 | 12
Cc1ccc(Oc2cc(CNC(=O)C(C)n3ccnc3)ccn2)cc1C (stereo not given) | 4 | 2
CCC(C)OC(=O)Cn1nnc2sc3c(c2c1=O)CCC(C)C3 (stereo not given) | 0 | -2
O=C(Nc1ccc(-n2nc(OCc3ccc(F)cc3)nc2-c2ccccc2F)cc1)Nc1cccc(Cl)c1 | 2 | 7
Cc1c(C)n2c3c(=O)n(CC(=O)c4ccccc4)c(=O)n(C)c3nc2n1-c1ccccc1F | 1 | 7
Cc1cc(C)c(S(=O)(=O)N2CCC(c3cn(Cc4ccc(C(F)(F)F)cc4)c4ccccc34)CC2)c(C)c1 | 21 | 12
CC(C)Cc1nc(C(C)n2cncn2)n(-c2ccc3c(c2)OCCO3)n1 (stereo not given) | -5 | -7
COc1ccc(-c2ccc(=O)n(CCNS(=O)(=O)c3cccc(C(F)(F)F)c3)n2)cc1 | 2 | 0
Cc1ccc2nc(C)n(C3CCN(C(=O)Cc4ccc(N(C)C)cc4)CC3)c2c1 | 6 | 11
CC12CC3CC(C)(C1)CC(OCCN)(C3)C2 | -1 | -4

(further entries)
SMILES | NPYLR7 ag | NPYLR7 ag max-min
CCCCC(F)(F)C(=O)CC[C@H]1[C@H](O)CC(=O)[C@@H]1CCCCCCC(=O)O | -3 | -8
CC(=O)Nc1ccc(Cl)c(C(=O)N2[C@@H]3CC[C@H]2CC(O)C3)c1 (stereo not given in full) | -2 | -2
CCOc1ccccc1OCCc1nc2sc3c(c2c(=O)[nH]1)CCCC3 | 8 | 2
CCSCCC(=O)N1CCCC(c2nn(C)c(=O)n2-c2ccccc2)C1 (stereo not given) | 4 | 1
Nc1cc(-c2ccc(Cl)cc2)nn1-c1ccc(C(=O)NCc2ccccn2)cc1 | 3 | 1
Cc1[nH]cnc1C(=O)N1CCC(CO)(Cc2ccccc2Cl)CC1 | -1 | -1
C=CCNC(=O)c1cnc2c(-c3ccc(OC)cc3)cnn2c1C | 7 | -5
CCOc1cccc(CNC(=O)C2CCN(c3nc4ccsc4c(=O)n3-c3ccccc3)CC2)c1 | -5 | -7
N#Cc1cccc(S(=O)(=O)NCc2ccc(-n3ccnc3)c(F)c2)c1 | 7 | 4
O=C(Nc1cccc(F)c1)Nc1ccnn1C1CCN(C(=O)C#Cc2ccccc2)CC1 | 2 | -2
CCCc1ncc(CN2CCCCC2C(=O)Nc2ccc(Oc3ccccc3)nc2)cn1 (stereo not given) | 4 | 0
COc1ccccc1-n1c(CNC(=O)c2cccs2)nnc1SCC(=O)Nc1nccs1 | -14 | -4

Next records.
SMILES | NPYLR7 ag | NPYLR7 ag max-min
COc1ccc(Nc2nc(C)c([N+](=O)[O-])c(Nc3ccc(OC)c(Cl)c3)n2)cc1Cl | 7 | 4
O=C(CSc1ncnc2c1nnn2Cc1ccccc1)NCc1ccc2c(c1)OCO2 | 8 | 24
S=C(NN=C1CC2CC=CC12)NC1CCCCC1 (stereo not given) | -5 | -8
CCN1CCC(NC(=O)CSc2cc(C)c3ccc(C)cc3n2)CC1 | -2 | -2
Cc1nc([N+](=O)[O-])c(N2CCN(c3ccccn3)CC2)n1Cc1ccccc1 | -1 | -2
CCCNC(=O)C1(C)CCCN(Cc2ccccc2Cl)C1 (stereo not given) | 0 | -2
COc1cc(NC(=O)CCC2CCCN(Cc3cc(F)cc(F)c3)C2)cc(OC)c1 (stereo not given) | 2 | -3
CCn1nnc2c(Nc3ccc(C)c(F)c3)ncnc21 | 6 | 12
O=C(c1cc(Cl)c[nH]1)N1CCC(C(O)c2ccccc2)CC1 (stereo not given) | -2 | -2
CC(C)CNC(=O)CC1CSc2nc(C(C)C)cc(=O)n21 (stereo not given) | 1 | 1
CC(c1cccc(-c2nccn2CCc2ccccn2)c1)N(C)C (stereo not given) | 17 | 9
O=C(c1cc2ccccc2s1)N1CCN(c2nc3nccc(-c4cccnc4)n3n2)CC1 | 1 | -2

The list continues.
Sequence of screens – NPYLR7 ag | NPYLR7 ag max-min
COc1cc(-c2nnc(SC(C)C)o2)cc(OC)c1OC
 : 1 | -1
CCC(C)C(=O)Nc1n[nH]c(-c2ccc(C(C)(C)C)cc2)n1 (stereo not given)
 : -2 | -3
CCN(CC(=O)NC1CCS(=O)(=O)C1)S(=O)(=O)c1c(C)noc1C (stereo not given)
 : 4 | 2
COC(=O)CN(Cc1cnn(C)c1)S(=O)(=O)c1cccc(C)c1
 : 16 | 8
CC1(C)CC2(C)NNC(=O)CN2C(=S)N1 (stereo not given)
 : -2 | -8
CCC(NC(=O)c1coc(CN2CCN(c3ccccc3F)CC2)n1)c1ccncc1 (stereo not given)
 : 3 | 2
CC(=O)O[C@@H]1CC2C(C)(C)[C@H](O)CC[C@]2(C)C2CC[C@@]3(C)[C@H](c4ccoc4)OC(=O)C4OC43[C@@]21C (stereo not given in full)
 : -5 | -12
COc1cc(C2C(C(=O)OCc3ccccc3)=C(C)NC3=C2C(=O)CC(c2ccccc2)C3)ccc1O (stereo not given)
 : -13 | -17
COc1ccc(C2Nc3ccccc3N=C3CC(C)(C)CC(=O)C32)c(OC)c1 (stereo not given)
 : 2 | -1
O=C(Nc1cc2c(cc1Cl)OCO2)c1cc(Cl)ccn1
 : 3 | 5
CC(=O)Cn1c(=O)c2c(nc3n(-c4ccc(Cl)cc4)c(C)c(C)n23)n(C)c1=O
 : -6 | -9
CCOC(=O)Cn1c(=O)c2c(nc3n2CCCN3c2ccc(Oc3ccccc3)cc2)n(C)c1=O
 : 1 | 6
CSc1ccc(S(=O)(=O)N(CC(=O)NC(C)c2ccccc2)c2ccc(C)cc2)cc1 (stereo not given)
 : -13 | -22
CC(=O)Nc1cccc(Nc2nccc3[nH]c(-c4ccccc4)cc23)c1
 : -3 | -7
CCOC(=O)C(c1cc(OC)ccc1OC)C1C=CC(NC(=O)c2cccs2)C1 (stereo not given)
 : 5 | 5

Entries listed so far that have a CF3 group:
Sequence of screens – NPYLR7 ag | NPYLR7 ag max-min
Cc1cc(C)c(S(=O)(=O)N2CCC(c3cn(Cc4ccc(C(F)(F)F)cc4)c4ccccc34)CC2)c(C)c1
 : 21 | 12
COc1ccc(-c2ccc(=O)n(CCNS(=O)(=O)c3cccc(C(F)(F)F)c3)n2)cc1
 : 2 | 0

Among those listed so far, 5 contain two or more sulfur atoms.
Sequence of screens – NPYLR7 ag | NPYLR7 ag max-min
Cc1c(C(=O)NC2CC2)sc(=O)n1Cc1ccc(S(C)(=O)=O)cc1
 : -8 | -5
CC1=NS(=O)(=O)NC(C)=C1CCC(=O)N1CCc2sccc2C1c1ccccc1 (stereo not given)
 : 0 | -1
COc1ccccc1-n1c(CNC(=O)c2cccs2)nnc1SCC(=O)Nc1nccs1
 : -14 | -4
CCN(CC(=O)NC1CCS(=O)(=O)C1)S(=O)(=O)c1c(C)noc1C (stereo not given)
 : 4 | 2
CSc1ccc(S(=O)(=O)N(CC(=O)NC(C)c2ccccc2)c2ccc(C)cc2)cc1 (stereo not given)
 : -13 | -22

(further entries)
Sequence of screens – NPYLR7 ag | NPYLR7 ag max-min
COc1cccc2ccc(CN3CCC(CO)(CCCc4ccccc4)CC3)nc12
 : 15&16 | 23&2
COC(=O)c1cc(CN(C)Cc2nc(-c3cccnc3)no2)cs1
 : 0 | 0
O=C(c1c[nH]c(-c2ccncc2)c1)c1cc(Cl)ccc1O
 : 2 | 2
CC1=NC2=C(C(=O)CCC2)C(c2ccsc2)C1C(=O)OC1CCCCC1 (stereo not given)
 : -9 | -15
CCC(C)NC(=O)c1ccc(N2CCC(C)CC2)c([N+](=O)[O-])c1 (stereo not given)
 : -6 | -12
Cc1cccc(N2CCN(Cc3n[nH]c(=O)n3Cc3cccc(F)c3)CC2)c1C
 : 13 | 9
O=C(CSc1nnc(C2CCCCC2)o1)NN1C(=O)NC2(CCCCC2)C1=O
 : -1 | -2
COCc1nc(CN(CC(C)C)C(=O)CC(C)C)[nH]c(=O)c1Cc1cc(C)ccc1C
 : 21 | 13
Cc1cc(=O)[nH]c(SCc2nc3sccn3c2Br)n1
 : -2 | -3
COc1ccc(NC(=O)N2CCc3ccccc3C2c2ccccc2Cl)cc1 (stereo not given)
 : 26 | 9
Cc1ccc(C(=O)Nc2ccc(N3CCCC3)c(C(=O)NC(C)c3ccccc3)c2)cc1 (stereo not given)
 : -4 | 1
CCNC(=O)COc1ccc(CNC(=O)N2CCCC2C(C)C)cc1OC (stereo not given)
 : 11 | 11
CCOC(=O)c1cc(-c2ccc(Cl)cc2)n(-c2ccc(C(=O)NC3CCc4ccccc43)cc2)n1 (stereo not given)
 : 7 | 2
Cc1ccc(NC(=O)Cn2nc(C3CCCN(S(C)(=O)=O)C3)n(C)c2=O)c(C)c1 (stereo not given)
 : -4 | 4
CN(C)c1cccc(C(NC(=O)c2cccc(SC(F)F)c2)c2ccc(S(C)(=O)=O)cc2)c1 (stereo not given)
 : -7 | -9

2 of the compounds above, as labelled records.
CCOC(=O)c1cc(-c2ccc(Cl)cc2)n(-c2ccc(C(=O)NC3CCc4ccccc43)cc2)n1 (stereo not given)
  NPYLR7 ag: 7 | NPYLR7 ag max-min: 2
COCc1nc(CN(CC(C)C)C(=O)CC(C)C)[nH]c(=O)c1Cc1cc(C)ccc1C
  NPYLR7 ag: 21 | NPYLR7 ag max-min: 13

(listing goes on)
Sequence of screens – NPYLR7 ag | NPYLR7 ag max-min
O=C(CNC(=O)c1ccccc1)NCC(=O)N1CCOC(COc2ccc3c(c2)CCCC3)C1 (stereo not given)
 : -6 | -9
CCCN(CCC(=O)N1CCN(c2ccccc2F)CC1)c1nc(-c2ccccc2)nc2cc(Cl)ccc12
 : 23 | 26
COC(=O)[C@@H]1C[C@@H](N(C)C)CN1C(=O)c1ccc(-c2noc(C3CC3)n2)cc1
 : -3 | -4
CC(C)Nc1ncccc1C(=O)Nc1ccccc1Nc1ccccc1
 : -3 | -11
N#Cc1c(-c2ccco2)c2c([nH]c1=S)CCCC2=O
 : 10 | 11
CCN(CC)CCCC(C)NC(=O)c1cc(-c2ccc(OC)cc2)n2nc(C)c(-c3ccccc3)c2n1 (stereo not given)
 : 4 | 21
Cc1ccc(CN(C)C(=O)c2cc(COc3ccc4sc(C)nc4c3)on2)o1
 : 0 | -4
Cc1nsc(NC(=O)N2CCCC(c3ccccc3)CC2)n1 (stereo not given)
 : 0 | -5
COC(=O)NNC(=O)c1cc(-c2ccccc2)cs1
 : 1 | -9
COc1ccc(CN2CN(S(=O)(=O)c3cccs3)c3nc4ccccc4nc32)cc1
 : 3 | -6
Cc1ccc(C(=O)N(Cc2nccn2Cc2cccc(F)c2)CC2CC2)cc1
 : 3 | 12
CCCCS(=O)(=O)N1CCN(c2c(CCC(=O)OCC)c(C)nc3ncnn23)CC1
 : -7 | -10
O=C(COc1ccc(Cl)cc1)Nc1c(-c2cccc(F)c2)nc2ccccn12
 : -1 | 5
Cc1cc(Cn2nc(C)c([N+](=O)[O-])c2C)no1
 : 0 | -2
COc1cccc(C2=NN(C(=O)CN3CCOCC3)C(c3ccccc3C)C2)c1 (stereo not given)
 : 19 | 25
CN(C)C(=O)c1ccc(NCC(=O)Nc2ccc(S(=O)(=O)N3CCCCCC3)cc2)cc1
 : 8 | 1
O=C(NCc1ccco1)c1coc(CN(CCc2c[nH]c3ccccc23)Cc2cccc(C(F)(F)F)c2)n1
 : 20 | 29

Source: PubChem BioAssay
